# Screening results: PubChem, several laboratories
# UCH37 DUB inh = inhibitors of human deubiquitinating enzyme UCH37. AID 588478. purified proteasome/UCH37, Ub-AMC cleavage fluorescence. 330,000 tested, 0.33% active. inhibition, % (test concentration not listed);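 active means mean of two replicates above 20%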;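 further: 0% = compound-free wells with enzyme and 100% = wells lacking proteasome; stock transfer was 100 nL into about 20 µL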
# Target sequence (Q9Y5K5 whole entry, looked up): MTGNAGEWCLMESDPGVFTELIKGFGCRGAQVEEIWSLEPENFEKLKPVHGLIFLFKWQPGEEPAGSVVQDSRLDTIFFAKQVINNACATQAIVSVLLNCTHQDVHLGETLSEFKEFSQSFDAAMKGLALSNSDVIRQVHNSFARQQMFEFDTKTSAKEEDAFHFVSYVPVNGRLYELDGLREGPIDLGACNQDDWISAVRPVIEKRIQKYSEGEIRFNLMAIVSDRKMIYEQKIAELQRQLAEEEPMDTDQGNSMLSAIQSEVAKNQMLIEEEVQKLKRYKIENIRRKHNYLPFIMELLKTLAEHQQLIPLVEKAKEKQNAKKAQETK
#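 System: Proteasome-associated human UCH37 deubiquitinase; Input: 0.15 nM proteasome in added enzyme buffer; Also added: Ub-AMC substrate from 1 µM stock; Incubation: 30 min compound-proteasome preincubation then 25 min substrate reaction, room temperature; Detection: fluorescence, ex 355 nm, em 460 nm; Read-out: % inhibition of Ub-AMC cleavage fluorescence; Benchmarks: no-proteasome and no-compound wells.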
# FGF22 binding = shifts melting point of recombinant human FGF22; Q9HCT0; AID 651658; calls only at 9.99 µM; recombinant FGF22 thermal shift, SYPRO orange fluorescence; percent of sucrose octasulfate shift, DMSO zero; 340,000 tested, 1.5% active;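 active means melting point raised past a set limit in the mean and every replicate; inconclusive means no clear call; three in four hits are not shown here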
# Target sequence (Q9HCT0 whole entry, looked up): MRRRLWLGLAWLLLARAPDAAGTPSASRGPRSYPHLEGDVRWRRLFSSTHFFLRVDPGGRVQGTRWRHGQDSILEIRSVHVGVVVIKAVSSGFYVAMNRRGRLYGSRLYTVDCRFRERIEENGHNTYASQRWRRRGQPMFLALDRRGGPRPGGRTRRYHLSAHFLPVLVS
# AF4-AF9 inh = blocks AF4 peptide binding to human AF9; P42568; AlphaScreen, biotin-AF4 peptide binding to FLAG-AF9; inhibition, % at 10 µM; 350,000 tested, 0.47% active;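 active means every replicate reaching a set inhibition limit, whatever the replicate mean, cut at about 25% in these data; inconclusive means mean inhibition reaches that limit but some replicates miss it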;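 further: 0% = plate neutral control median and 100% = total signal loss; the record names both 10 and 1 µM as test concentration; the first replicate is given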
# Vif TR-FRET = inhibitors of Vif binding to APOBEC3G peptide, primary screen, biochemical, TR-FRET, GST-Vif 1-94, biotin-A3G peptide, dose response retest (AID 1117319) | TR-FRET GST-Vif / biotin-A3G peptide binding; higher % means a stronger effect; test concentration not given here; strong numbers were not always called active | one-dose inhibition, %; IC50 in µM for titrated hits | 260,000 tested, 0.57% active;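 active means above the screen mean plus three standard deviations and confirmed in dose response; inconclusive means results disagree or hit not tested in dose response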;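 further: Vif residues 1-94 fused to GST binding biotinylated APOBEC3G peptide 110-148; 0% = full assay without inhibitor and 100% = GST in place of GST-Vif; retest series ran down from 100 µM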
# E coli growth = inhibitors of Escherichia coli growth; OD600, 23 h; stronger effect = lower value; OD600 absorbance (no concentration beside the values); 330,000 tested, 0.21% active; AID 1053175;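 active means OD600 absorbance below the run mean of sample wells minus 3.6 SD, in any replicate, cut at about 0.56 in these data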;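 further: stock transfer was 300 nL into about 60 µL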
# RanGTP-Imp inh = inhibitors of RanGTP-importin-beta interaction, primary screen, biochemical, FRET, CFP-Ran, YFP-importin-beta, homogeneous; cell-free CFP-Ran/YFP-importin-beta FRET ratio; inhibition, % (test concentration not listed); 300,000 tested, 1.1% active; AID 2216;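 active means most replicates above 15%; inconclusive means exactly half above 15%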;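 further: 0% = DMSO wells and 100% = Ran loaded with GDP instead of GTP; wells of about 40 µL received 100 nL stock; the first replicate is given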
# HNF4A DNA FP = change in binding of human HNF4 alpha to DNA; P41235; HNF4a-FITC DNA binding, fluorescence polarization, 1 h; activity change, % at 10 µM; 360,000 tested, 0.3% active; in the data active means activity change above about 30%, passing the limit was not always enough;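 further: controls were the assay level and a saturating level of protein; the project sought stronger binding though the title names inhibitors; some compounds called inactive have numbers as strong as hits; positive values seem to mean higher polarization but the record does not say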
# Target sequence (P41235 whole entry, looked up): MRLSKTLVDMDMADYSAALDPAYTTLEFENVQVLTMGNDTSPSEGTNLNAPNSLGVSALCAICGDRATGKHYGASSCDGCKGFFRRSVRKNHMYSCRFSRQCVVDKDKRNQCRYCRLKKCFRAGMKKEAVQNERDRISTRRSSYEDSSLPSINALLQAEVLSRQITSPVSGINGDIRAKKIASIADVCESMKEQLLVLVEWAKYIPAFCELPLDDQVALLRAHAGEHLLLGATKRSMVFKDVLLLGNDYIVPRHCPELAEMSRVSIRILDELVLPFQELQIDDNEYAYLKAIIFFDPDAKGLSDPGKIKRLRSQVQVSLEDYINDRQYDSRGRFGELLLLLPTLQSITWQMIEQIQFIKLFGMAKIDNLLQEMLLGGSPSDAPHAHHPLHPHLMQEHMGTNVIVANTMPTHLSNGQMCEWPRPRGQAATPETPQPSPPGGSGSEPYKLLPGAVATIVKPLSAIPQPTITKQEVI
# Starred values were filed as active, the others as inactive; i = inactive; ? = inconclusive; . = no result given. The list is partial; rates above refer to the full screens.
SMILES,UCH37 DUB inh,FGF22 binding,AF4-AF9 inh,Vif TR-FRET,E coli growth,RanGTP-Imp inh,HNF4A DNA FP
CCc1ccc(C(=O)C(C)OC(=O)Cc2n[nH]c(=O)c3ccccc23)cc1 (centres undefined),1.8,i,-0.1,.,0.67,-0.4,6.0
CCN1C(=O)CC(N2CCN(C(c3ccccc3)c3ccccc3)CC2)C1=O (centres undefined),1.3,.,.,-5%,0.71,4.8,0.7
CCC(C)N(C(=O)C(F)(F)F)C(C(=O)NC1CCCCC1)c1ccncc1 (centres undefined),2.5,.,.,5%,0.7,-0.7,3.7
CC1CCCN(CCCOc2ccc(Br)cc2Cl)C1 (centres undefined),.,i,5.1,-3%,.,-0.1,-4.5
Cc1ccc(N(CC(=O)NN=C2CCN(C)CC2)S(=O)(=O)c2ccccc2)c(C)c1,2.8,i,3.4,.,0.68,0.2,0.7
Cc1nnc(NC(=O)CCC(=O)N2CCN(CCOc3cccc4ccccc34)CC2)s1,7.2,i,-1.6,-11%,0.68,3.8,5.6
CC1CCCCC12NC(=O)N(CC(=O)OCC(=O)NC(=O)c1ccccc1)C2=O (centres undefined),0.7,i,1.5,6%,0.67,.,6.3
CCOC(=O)N1CCN(C(=O)CNC2CCCCCCC2)CC1,-1.3,.,-7.8,15%,0.66,0.1,-1.9
COc1ccc(CN2CC[C@H]3C=CC[C@@H](C(=O)N4CCOCC4)[C@H]3C2=O)cc1OC,0.2,i,.,.,.,-2.7,0.2
CCc1ccc(C(=O)N/N=C(\C)c2ccncc2)s1,.,i,1.4,-2%,.,0.5,4.5
O=C(Nc1ccccc1)Nc1ccc(S(=O)(=O)N2CCCCC2)cc1,5.3,.,.,-1%,0.65,1.8,2.2
CC(C)c1ccc(N(CC(=O)NCc2ccco2)C(=O)CCC(=O)Nc2ccccn2)cc1,4.9,i,-3.2,.,0.72,-3.0,2.0
CC1(C)CC(=O)C2=C(C1)N(C1CCCCC1)C(=O)C2(O)C(F)(F)F (centres undefined),7.7,.,.,-4%,0.72,-1.5,4.7
C=CCn1c(SCC(=O)NC(=O)NCc2ccco2)nc2sc(C)c(C)c2c1=O,0.9,.,.,-4%,0.7,-0.6,3.0
O=C(COc1ccc(F)cc1)NNC(=O)Cn1ccc(C(F)(F)F)n1,5.3,i,1.6,.,0.68,.,-39
O=C(NCCC(=O)N1CCc2ccccc21)c1ccco1,4.3,i,-2.9,5%,0.67,0.6,-0.8
Cc1ccc(Cl)cc1NC(=O)C1COc2ccccc2O1 (centres undefined),1.9,i,-3.7,.,0.66,2.2,1.0
COc1ccc(C2C(C(=O)O)c3ccccc3C(=O)N2Cc2ccco2)cc1 (centres undefined),3.5,i,-0.2,5%,0.66,0.6,2.4
COc1ccc(-n2cc(-c3ccccc3)c3c(N4CCOCC4)ncnc32)cc1,-9.7,i,3.9,-4%,0.73,-2.6,-0.9
COC(=O)c1sccc1NC(=S)NCc1ccc(Cl)cc1,5.7,i,2.2,-1%,0.62,-0.6,0.1
C[C@H](NC(=O)c1ncn2c1c(=O)[nH]c1ccccc12)c1ccccc1,.,i,-6.2,-5%,.,.,-0.1
CCc1ccc(NC(=O)C2CC(=O)N=C(N)S2)cc1 (centres undefined),3.9,.,.,-3%,0.73,0.4,0.0
OC[C@@H]1CN(Cc2ccc(-c3ccccc3)cc2)C[C@H](n2cnc3c(NCc4ccncc4)ncnc32)O1,.,i,4.8,.,.,.,5.5
Cc1cc2c(N3CCCCC3C)ncnc2s1 (centres undefined),0.1,.,.,1%,0.74,2.1,-0.2
CCCOc1ccc([N+](=O)[O-])c(N)c1,1.4,i,3.1,-2%,0.65,0.9,1.6
Cc1ccc(O)c(C2=NCCNC(C(F)(F)C(F)F)=C2)c1,13,.,.,-1%,0.71,2.4,0.9
Cc1ccc(C(=O)Nc2ccc(S(=O)(=O)N3CCc4ccccc4C3)cc2)o1,0.7,.,.,0%,0.74,5.8,1.7
O=C(O)c1ccc2c(=O)n3c(nc2c1)/C(=C/c1ccc(F)cc1)CC3,-12,i,-9.7,3%,0.66,2.1,-1.4
CC12c3ccccc3C(c3ccccc31)C1C(=O)N(Cc3cccnc3)C(=O)C12 (centres undefined),-1.1,.,.,7%,0.69,1.9,-4.4
COc1ccc(C(CNC(=O)c2ccccc2SC)N(C)C)cc1 (centres undefined),0.3,i,-1.7,10%,0.7,3.1,0.4
CC1Cc2ccccc2N1CC(=O)NCc1ccccc1Cl (centres undefined),4.4,i,1.0,-18%,0.72,2.6,5.8
COCCn1nnnc1C(CC(C)C)N1CCN(c2ccccc2)CC1 (centres undefined),1.1,.,.,-7%,0.7,1.9,-1.8
OCCC1CN(Cc2ccc3nsnc3c2)CCN1C1CCCCC1 (centres undefined),5.4,.,.,18%,0.66,3.6,-1.4
Cc1cc(N/N=C/c2ccc(O)cc2O)nc(N2CCOCC2)n1,.,i,8.3,12%,.,1.6,-1.2
CCOC(=O)c1[nH]c(C(=O)O)c(CCN(CC)CC)c1C,-1.2,i,-5.5,2%,0.71,11,-4.7
COc1ccc(CC(=O)NNc2ncnc3c2cnn3Cc2ccccc2)cc1OC,5.5,i,1.2,?,0.71,1.6,-0.4
Cc1cc(NC(=O)CSc2nc3sc(C)c(C)c3c(=O)n2C2CCCC2)no1,1.2,i,2.4,-7%,0.69,3.7,2.8
COc1cc(OCC(N)=O)cc(OC)c1OC,0.9,i,-0.7,-7%,0.63,5.0,3.7
O=C(NCCc1csc(-c2cccc(F)c2)n1)c1ccco1,0.9,i,0.4,.,0.62,0.5,0.7
Cn1c(NCc2ccccc2O)nc2ccccc21,-0.9,.,.,27%,0.63,-0.4,-3.1
Cc1ccc(-c2nn(C)c(=O)c3ccccc23)cc1CNC(=O)c1ccco1,1.0,.,.,5%,0.67,-2.6,4.1
COc1cc(C(=O)NC(=S)Nc2csc(-c3ccc(F)cc3)n2)cc(OC)c1OC,3.5,i,-1.0,-2%,0.68,-2.4,-3.9
CC(C)(C)c1ccc(-c2cn(-c3ccc(Br)cc3)c3[n+]2CCCS3)cc1,6.4,i,3.5,-1%,0.6,-4.6,1.7
COc1ccc(S(=O)(=O)NCCSCc2ccco2)cc1Cl,2.8,.,.,>100µM*,0.71,-0.2,1.8
C[n+]1c2n(c3ccccc31)N=C(c1ccc(-c3ccccc3)cc1)CS2,12,i,19,.,0.3*,-1.1,2.5
Cc1ccc(NC(=O)c2ccc(NCc3ccc(F)cc3)nc2)cc1,2.6,i,-12,.,0.72,1.6,-0.5
Cc1ccc(NC(=O)CN(C)C(=O)c2cc(C)on2)cc1,1.0,i,-0.3,2%,0.7,.,1.6
N#C/C(=C(/O)CCl)c1nc2c(s1)CCc1ccccc1-2,5.3,i,6.1,14%,0.62,-4.5,9.0
Cc1cc(N)n2ncc(-c3ccc(F)cc3)c2n1,-25,.,.,4%,0.71,-2.5,-0.7
CN(C)/C=N/c1cc(=O)n(C)c(=O)n1CC1CC1,.,i,-1.1,.,.,-3.9,1.4
CN(CC(=O)Nc1cccc(F)c1)C(=O)c1cccc(-n2cccc2)c1,0.8,.,7.6,8.1µM*,0.72,2.2,-27
CC(=O)N1N=C(c2ccc(Cl)cc2)CC1c1ccc([N+](=O)[O-])cc1 (centres undefined),2.0,i,-2.0,.,0.66,4.8,-2.8
Nc1nc(SCc2ccc(Cl)cc2)[nH]c(=O)c1-c1ccccc1,2.9,.,.,5%,0.73,2.5,1.4
COc1ccc(OC)c(/C=N/NC(=O)C(=O)N/N=C/c2cc(OC)ccc2OC)c1,.,i,2.3,.,.,9.0,-1.9
C/C(=N\NC(=O)c1nnn(-c2nonc2N)c1-c1cccs1)c1cccnc1,.,i,0.4,.,.,1.8,-1.0
COc1cccc2c(C)cc(N3CCCCCC3)nc12,-29,i,3.0,0%,0.65,-0.9,0.3
Cc1ccc(NC(=O)C2CC(=O)n3c(nc4ccccc43)N2)cc1Cl (centres undefined),0.3,i,-5.8,-3%,0.73,2.7,-1.5
COc1cc(NC(=O)c2ccccc2)c(OC)cc1NC(=O)Cc1ccc(C)cc1,2.1,i,-6.8,.,0.73,-2.4,0.1
O=C(COC(=O)c1ccc2c(c1)OCCO2)NCc1ccccc1Cl,2.8,i,-1.4,-12%,0.67,.,-3.8
O=C(Cn1cc(/C=N/O)c2ccccc21)N1CCOCC1,.,.,.,32%,.,0.7,-0.5
# The list continues.
SMILES,UCH37 DUB inh,FGF22 binding,AF4-AF9 inh,Vif TR-FRET,E coli growth,RanGTP-Imp inh,HNF4A DNA FP
CCOc1cc(CNCc2ccccc2)ccc1OCc1ccc(Cl)cc1,6.9,i,14,-8%,0.62,3.2,2.0
C=CCN(Cc1nc(-c2ccccc2)no1)C(=O)c1ccco1,0.1,i,-2.0,.,0.71,5.1,2.2
CC(=O)Oc1ccc2oc(=O)c3c(c2c1)CCCN3C(=O)CN1CCN(c2ncccn2)CC1,6.1,.,.,-3%,0.79,7.0,-0.9
Cc1cccc(NS(=O)(=O)c2nnc(NC(=O)c3cccc(C)c3)s2)c1,3.6,i,?,.,0.71,?,-1.8
COc1ccc(Cl)cc1NC(=S)NCc1cccnc1,-0.3,i,-4.1,1%,0.64,-1.4,4.6
O=C(NN=C(Cc1ccccc1)Cc1ccccc1)c1ccc(F)cc1,4.4,i,0.5,-7%,0.71,-3.9,2.2
COc1ccc(N2C(C)=CS/C2=C(/C#N)c2nnc(N3CCOCC3)n2-c2ccccc2)cc1,12,.,.,11%,0.66,-0.7,-1.1
O=C(COc1ccccc1)NC(=S)Nc1cccc2cc(O)ccc12,1.2,i,-0.1,-4%,0.71,0.3,-6.0
O=C(c1ccc(Cl)c([N+](=O)[O-])c1)N(Cc1ccccc1)C1CCS(=O)(=O)C1 (centres undefined),-2.0,.,.,.,0.74,0.3,-1.0
CCOC(=O)c1cc2occc2n1CC(=O)NCCOC,0.0,.,.,-2%,0.69,2.1,1.7
CC12CCC(=O)N1c1ccccc1C(=O)N2c1ccccc1 (centres undefined),-0.1,.,.,2%,0.69,7.0,3.8
Cc1cccc(-c2nsc(SCC(=O)N3CCCC3)n2)c1,6.2,.,.,-9%,0.66,-0.7,-2.8
Cc1nnc(NC(=O)c2csc3c2CCCC3)s1,0.1,i,-0.7,-6%,0.74,0.0,.
O=C(Nc1ccc2sccc2c1)c1ccc(Cl)s1,-31,i,-3.6,-6%,0.76,-2.7,1.7
O=C(C1CCN(S(=O)(=O)c2ccc(-n3cnnn3)cc2)CC1)N1CCCCC1,-1.2,i,-1.4,-7%,0.64,-1.1,2.6
O=C1c2ccccc2N2C(=O)c3ccccc3C2N1Cc1ccccc1 (centres undefined),1.2,i,-2.6,.,0.66,2.2,-2.0
Cc1ccc(S(=O)(=O)NNC(=O)C(=O)NNS(=O)(=O)c2ccc(C)cc2)cc1,1.8,i,0.4,.,0.69,3.7,0.4
